# Screening data (PubChem BioAssay)
# DUX4 inh: DUX4-mediated transcription inhibition; 293T-iDUX4 ZSCAN4-Gaussia luciferase reporter, 24 h; active compounds read low; activity change, negative = inhibition, % (test concentration not listed); 37,000 compounds, 0.8% hits;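 active means -10% or lower and over 25 points stronger than a control reporter; inconclusive means -10% or lower with a smaller gap; inactive means above -10%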;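 further: 0% = median of neutral control wells and -100% = median of positive control wells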
# DUX4 inh difference: recorded beside DUX4 inh, whose call it bears; Gaussia minus Italica difference, %; measured here: selective DUX4 reporter inhibition;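 worked out from the two reporters; negative = selective loss of the DUX4 reporter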
# DUX4 inh control: further read-out of DUX4 inh, marked with its call; activity change, negative = inhibition, %; measured here: Italica tet-on control reporter;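 0 = neutral control and -100 = positive control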
# * marks the source's active call; other numbers are inactive results; ? = inconclusive; nt = not tested or not shown; & = joins results of further samples.
SMILES,DUX4 inh,DUX4 inh difference,DUX4 inh control
CN(C)CCCNC(=O)[C@H]1[C@H](CO)[C@H]2Cn3c(ccc(C4=CCCC4)c3=O)[C@H]2N1CCC(F)(F)F,?,nt,nt
O=C(N[C@@H]1C=C[C@H](CC(=O)N2CCc3ccccc3C2)O[C@@H]1CO)C1CCC1,1,2,-1.0
COCC#Cc1ccc([C@H]2[C@H]3CN(C(=O)Nc4ccc(F)cc4)CC(=O)N3[C@H]2CO)cc1,10,3,6.2
CCCNC(=O)C[C@@H]1CC[C@@H]2[C@H](COC[C@H](O)CN2Cc2ccncc2)O1,-3,0,-3.0
CCS(=O)(=O)NC[C@@H]1[C@@H](c2ccccc2)[C@@H](CO)N1CC1CC1,-1,-3,2.0
Cc1ccc(S(=O)(=O)Nc2ccc3c(c2)C(=O)N([C@H](C)CO)C[C@@H](C)[C@H](CN(C)C(=O)NC2CCCCC2)OCCCC[C@@H](C)O3)cc1,8,6,2.3
CN1[C@@H]2Cn3c(ccc(/C=C/c4ccccc4)c3=O)[C@H]1[C@@H](C(=O)NC1Cc3ccccc3C1)[C@@H]2CO,-5,5,-10
CN(C)C(=O)c1ccc(-c2cccc(-c3nc(C(=O)NCc4ccccc4)cc4c3[C@@H](CCO)N([S@](=O)C(C)(C)C)C4)c2)cc1,2,-1,3.2
C[C@@H]1CN([C@@H](C)CO)C(=O)c2ccccc2-c2ccccc2CO[C@@H]1CN(C)C(=O)CCN(C)C,0,-1,0.9
CN1C(=O)c2cc(NC(=O)Cc3ccccc3)ccc2OC[C@H]2O[C@H](CC(=O)O)CC[C@H]21,0,-2,2.2
COc1ccc(NC(=O)Nc2ccc3c(c2)[C@H]2C[C@H](CC(=O)NCC(F)(F)F)O[C@H](CO)[C@H]2O3)cc1,2,1,1.2
CC(C)NC[C@@H]1[C@H](c2ccc(C3=CCCCC3)cc2)[C@H](CO)N1S(C)(=O)=O,-2,-3,1.3
COc1cccc(C(=O)N2C[C@H]3[C@@H](c4ccccc42)[C@H](CO)N3C(C)=O)c1,0,-1,1.2
CO[C@@H](CN(C)S(=O)(=O)c1cccc(Cl)c1)[C@H](C)CN([C@@H](C)CO)S(=O)(=O)c1cccc(Cl)c1,6,1,4.9
CO[C@@H]1CN(C)C(=O)c2cc(NC(C)=O)ccc2OC[C@H](C)N(C(=O)Cc2ccccn2)C[C@H]1C,1,-4,5.2
OC[C@@H]1[C@@H](c2ccc(C#Cc3cccnc3)cc2)[C@H]2CN(Cc3ccccc3F)CCCCN12,-45*,-51*,5.9*
C[C@@H]1CN([C@@H](C)CO)C(=O)c2ccccc2-c2ccccc2CO[C@H]1CN(C)C(=O)CCC(F)(F)F,4,1,2.9
Cc1ccc(S(=O)(=O)NCC[C@@H]2CC[C@H](NS(=O)(=O)c3ccccc3Cl)[C@@H](CO)O2)cc1,-1,-6,4.9
O=C(c1ccccc1)N1C[C@@H]2[C@H](c3ccccc31)[C@H](CO)N2C(=O)Nc1ccccc1Cl,1,-2,3.1
N#C[C@H]1[C@@H](c2ccccc2-c2cccc(F)c2)[C@@H](CO)N1C(=O)C1CCCCC1,-1,-4,2.7
CNC[C@@H]1Oc2c(NC(=O)c3nc4ccccc4s3)cccc2C(=O)N([C@H](C)CO)C[C@H]1C,4,5,-1.1
COc1ccc(NC(=O)N[C@H]2CC[C@H](CC(=O)NC3CCCCC3)O[C@@H]2CO)cc1,0,4,-3.5
O=C(NCC1CC1)[C@H]1[C@H](CO)[C@H]2Cn3c(ccc(-c4ccc(F)cc4)c3=O)[C@@H]1N2,5,7,-2.1
O=C(NCC(F)(F)F)[C@@H]1[C@@H](CO)[C@@H]2Cn3c(cccc3=O)[C@@H]2N1C(=O)c1ccccc1F,0,3,-3.1
CC=Cc1ccc2n(c1=O)C[C@H]1[C@H](CO)[C@@H](C(=O)NCCC)[C@@H]2N1C(=O)C1CCCC1 (mixture of isomers),7,6,0.7
O=C(C[C@@H]1CC[C@@H]2[C@H](COC[C@H](O)CN2Cc2ccccc2F)O1)NC1CCC1,6,4,1.6
O=C(NC1Cc2ccccc2C1)[C@@H]1N[C@@H]2c3ccc(C4=CCCCC4)c(=O)n3C[C@@H]2[C@H]1CO,6,0,6.1
COc1ccc(-c2ccc3c(c2)[C@@H]2[C@@H](CCN2C(=O)Cc2cccnc2)[C@H](CO)N3C)cc1,-3,-4,2.0
CCNC(=O)[C@@H]1[C@@H](CO)[C@@H]2Cn3c(ccc(-c4cccc(F)c4)c3=O)[C@H]1N2C(C)=O,-4,-8,4.1
C[C@H]1CC=CCCNC(=O)[C@H](C)N(C)C(=O)c2ccccc2O1 (mixture of isomers),0,0,-0.9
CCC(=O)NC[C@H]1[C@@H](c2ccccc2)[C@H](CO)N1C(=O)C1CC1,2,-1,3.2
CO[C@H](CN(C)S(=O)(=O)c1cn(C)cn1)[C@H](C)CN(C(=O)Nc1ccc(F)cc1)[C@H](C)CO,-2,-5,3.0
COc1ccc(-c2ccc([C@@H]3[C@H](CO)N4C(=O)CN(C(=O)NC(C)C)C[C@@H]34)cc2)cc1,7,-2,9.0
CNC[C@@H]1Oc2c(N)cccc2C(=O)N([C@@H](C)CO)C[C@H]1C,5,1,4.5
C[C@@H]1CN([C@H](C)CO)C(=O)c2ccccc2-c2ccccc2CO[C@@H]1CN(C)Cc1cccnc1,4,0,4.7
CN(C)CC(=O)N1C[C@H]2[C@@H](c3ccccc31)[C@@H](CO)N2C(=O)c1ccccn1,0,3,-2.8
CO[C@H]1CC[C@H]2CCOc3ccc(C#N)cc3C(=O)N(C)[C@@H](C)C(=O)N(C)C[C@@H]1O2,7,16,-9.5
CO[C@H]1CN(C)C(=O)c2ccc(NC(=O)C3CC3)cc2OC[C@H](C)N(Cc2cncnc2)C[C@H]1C,-1,-4,3.1
COc1ccc(S(=O)(=O)Nc2ccc3c(c2)C(=O)N([C@@H](C)CO)C[C@@H](C)[C@H](CN(C)Cc2ccc(C(=O)Nc4ccccc4N)cc2)OCCCC[C@@H](C)O3)cc1,-2,-4,1.3
O=C(c1ccccc1)N1C[C@@H]2[C@H](c3ccccc31)[C@H](CO)N2Cc1ccccc1F,0,4,-3.6

# Of the compounds above, these contain a CF3 group.
SMILES,DUX4 inh,DUX4 inh difference,DUX4 inh control
CN(C)CCCNC(=O)[C@H]1[C@H](CO)[C@H]2Cn3c(ccc(C4=CCCC4)c3=O)[C@H]2N1CCC(F)(F)F,?,nt,nt
COc1ccc(NC(=O)Nc2ccc3c(c2)[C@H]2C[C@H](CC(=O)NCC(F)(F)F)O[C@H](CO)[C@H]2O3)cc1,2,1,1.2
C[C@@H]1CN([C@@H](C)CO)C(=O)c2ccccc2-c2ccccc2CO[C@H]1CN(C)C(=O)CCC(F)(F)F,4,1,2.9
O=C(NCC(F)(F)F)[C@@H]1[C@@H](CO)[C@@H]2Cn3c(cccc3=O)[C@@H]2N1C(=O)c1ccccc1F,0,3,-3.1

# (continued)
SMILES,DUX4 inh,DUX4 inh difference,DUX4 inh control
CCCNC(=O)N1C[C@@H]2[C@H](c3ccccc31)[C@@H](CO)N2CC1CCCC1,0,1,-0.5
N#Cc1cccc(-c2ccc(C3[C@H]4CNC[C@@H]3N4C(=O)Nc3cccc(F)c3)cc2)c1 (stereo partly specified),2&14,-16&9,17&5.2
COc1cccc(-c2ccc([C@H]3[C@H](CO)N4CCCCN(C(=O)NC(C)C)C[C@@H]34)cc2)c1,7,1,6.6
CS(=O)(=O)Nc1ccc2c(c1)[C@H]1C[C@@H](CC(=O)NCc3ccccn3)O[C@@H](CO)[C@H]1O2,4,4,-0.5
COCC(=O)N1CCC2(CC1)CN(S(C)(=O)=O)[C@H](CO)c1[nH]c3cc(OC)ccc3c12,10,5,5.4
COc1ccccc1CN1[C@H](CO)[C@H]2c3ccccc3N(C(=O)C3CCCCC3)C[C@H]21,-1,-2,0.5
CCC(=O)N1CC2(C1)CN(Cc1cc(F)ccc1F)[C@@H](CO)c1[nH]c3cc(OC)ccc3c12,?,nt,nt
O=C(C[C@H]1CC[C@H]2[C@@H](COC[C@H](O)CN2Cc2cccc(Cl)c2)O1)N1CCOCC1,3,-5,7.9
O=C(CC1CC1)N1CC(=O)N2[C@H](C1)[C@H](c1ccc(C#Cc3cccc(F)c3)cc1)[C@@H]2CO,?,nt,nt
COc1ccccc1NC(=O)N1CCCCN2[C@H](CO)[C@H](c3ccc(C#CC4CCCC4)cc3)[C@H]2C1,0,-12,13
O=C(Cc1ccccn1)N1[C@H](CO)[C@H]2c3ccccc3NC[C@H]21,0,-2,2.3
COC(=O)N(C)C[C@H]1OCc2ccccc2-c2c(n(C)c3ccccc23)C(=O)N([C@H](C)CO)C[C@H]1C,6,13,-6.9
C[C@@H]1CN([C@@H](C)CO)C(=O)CCCn2cc(nn2)CO[C@@H]1CN(C)Cc1ccc2cccnc2c1,-3,-7,3.8
COCC(=O)N1C[C@H](C)[C@@H](OC)CN(C)C(=O)c2cc(NC(=O)c3ccc(OC)cc3)ccc2OC[C@@H]1C,1,-1,2.2
COc1cccc(-c2ccc(C3[C@@H]4CN(S(=O)(=O)c5cccc(Cl)c5)C[C@H]3N4)cc2)c1 (stereo partly specified),-7,-11,4.8
C[C@@H]1CN([C@H](C)CO)S(=O)(=O)c2ccc(C#Cc3ccncc3)cc2O[C@@H]1CN(C)CC1CC1,-1,-1,0.3
O=S(=O)(c1cccs1)N1CCCCN2[C@H](CO)[C@@H](c3ccc(/C=C/c4ccccc4)cc3)[C@@H]2C1,3,-9,12
COc1ccccc1CNC(=O)C[C@H]1C[C@@H]2c3cc(NC(=O)Nc4ccc(C(F)(F)F)cc4)ccc3O[C@@H]2[C@H](CO)O1,?,nt,nt
COc1ccccc1NC(=O)N(C)C[C@@H]1OCc2ccccc2-c2ccccc2C(=O)N([C@H](C)CO)C[C@@H]1C,12,12,-0.1
O=C(Nc1ccccc1F)N1C[C@@H]2[C@H](c3ccccc31)[C@H](CO)N2C(=O)Cc1ccccc1,1,8,-7.3
CCCNC(=O)N1[C@H](CO)[C@H](c2ccccc2-c2ccccc2)[C@@H]1C#N,?,nt,nt
O=C(C[C@@H]1CC[C@H]2[C@@H](COC[C@H](O)CN2S(=O)(=O)c2ccccc2)O1)NCC1CCCCC1,0,-12,12
CCN(C[C@@H]1N[C@@H](CO)[C@H]1c1ccc(-c2ccc(F)cc2)cc1)C(=O)CN(C)C,1,-2,3.2
CC(=O)N1CC2(C1)[C@H](c1ccc(-c3ccccc3C)cc1)[C@@H](CO)N2C(=O)CC1CC1,10,6,4.1
CCc1sc(N2[C@@H](C#N)[C@@H](c3ccccc3-c3ccccc3)[C@@H]2CO)nc1C,-4,0,-3.9
CCN1[C@H](C(=O)NCc2ccccc2)[C@@H](CO)[C@@H]2Cn3c(ccc(-c4ccccc4OC)c3=O)[C@@H]21,-1,0,-0.9
C[C@@H]1CCCCO[C@H](CN(C)C(=O)C2CCCCC2)[C@H](C)CN([C@@H](C)CO)C(=O)c2cc(NS(=O)(=O)c3ccccc3)ccc2O1,2,-3,4.5
COCC#Cc1ccc([C@H]2[C@H](CO)N3C(=O)CN(C(=O)c4cccnc4)C[C@@H]23)cc1,8,-3,11
C[C@@H]1CN([C@H](C)CO)S(=O)(=O)c2ccc(C3=CCCCC3)cc2O[C@H]1CN(C)C(=O)Nc1ccc2c(c1)OCO2,3,3,-0.1
CC(C)NC(=O)N1C[C@H]2[C@@H](c3ccccc31)[C@@H](CO)N2C(=O)c1ccccn1,5,6,-0.2
O=C(c1cnccn1)N1CC(=O)N2[C@H](CO)[C@@H](c3ccc(C#CCc4ccccc4)cc3)[C@@H]2C1,?,nt,nt
O=C([C@@H]1[C@@H](CO)[C@@H]2Cn3c(ccc(-c4ccccc4)c3=O)[C@@H]2N1Cc1cocn1)N1CCCCC1,-3,-3,0.7
C[C@@H]1CN([C@@H](C)CO)C(=O)c2cc(NC(=O)C3CCCCC3)ccc2O[C@@H](C)CCCCO[C@@H]1CN(C)C(=O)c1ccccc1,1,2,-0.9
CCS(=O)(=O)N1CCC2(CC1)CN(C(=O)NC(C)C)[C@H](CO)c1c2c2ccc(OC)cc2n1C,8,11,-3.3
CNC(=O)C[C@H]1CC[C@H]2[C@H](COc3ccc(NC(=O)Nc4ccccc4F)cc3C(=O)N2C)O1,7,24,-17

# Some of these compounds in order of SMILES length, smallest number first.
SMILES,DUX4 inh,DUX4 inh difference,DUX4 inh control
CCc1sc(N2[C@@H](C#N)[C@@H](c3ccccc3-c3ccccc3)[C@@H]2CO)nc1C,-4,0,-3.9
CCN(C[C@@H]1N[C@@H](CO)[C@H]1c1ccc(-c2ccc(F)cc2)cc1)C(=O)CN(C)C,1,-2,3.2
CNC(=O)C[C@H]1CC[C@H]2[C@H](COc3ccc(NC(=O)Nc4ccccc4F)cc3C(=O)N2C)O1,7,24,-17
O=C(c1cnccn1)N1CC(=O)N2[C@H](CO)[C@@H](c3ccc(C#CCc4ccccc4)cc3)[C@@H]2C1,?,nt,nt
O=C([C@@H]1[C@@H](CO)[C@@H]2Cn3c(ccc(-c4ccccc4)c3=O)[C@@H]2N1Cc1cocn1)N1CCCCC1,-3,-3,0.7
C[C@@H]1CN([C@@H](C)CO)C(=O)c2cc(NC(=O)C3CCCCC3)ccc2O[C@@H](C)CCCCO[C@@H]1CN(C)C(=O)c1ccccc1,1,2,-0.9

# Only part of the results is shown (hit frequency here may not be typical).
